# Bioassay records as filed in PubChem BioAssay.
# KCNQ2 inh: KCNQ2 potassium channel inhibitors, primary screen, cell-based, CHO-K1, FluxOR thallium flux, B-score (AID 2156) | 20 min; stronger effect = lower value; only compounds with negative scores are shown here; some inactives read as strong as hits | hit rate 1.1% among 310,000 | B-score at 10 µM | O88943;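 active = fluorescence ratio B-score at most minus 3 library SDs, with starting brightness B-score within 2 library SDs, cut at about -5.5 in these data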
# Target sequence (O88943 whole entry, looked up): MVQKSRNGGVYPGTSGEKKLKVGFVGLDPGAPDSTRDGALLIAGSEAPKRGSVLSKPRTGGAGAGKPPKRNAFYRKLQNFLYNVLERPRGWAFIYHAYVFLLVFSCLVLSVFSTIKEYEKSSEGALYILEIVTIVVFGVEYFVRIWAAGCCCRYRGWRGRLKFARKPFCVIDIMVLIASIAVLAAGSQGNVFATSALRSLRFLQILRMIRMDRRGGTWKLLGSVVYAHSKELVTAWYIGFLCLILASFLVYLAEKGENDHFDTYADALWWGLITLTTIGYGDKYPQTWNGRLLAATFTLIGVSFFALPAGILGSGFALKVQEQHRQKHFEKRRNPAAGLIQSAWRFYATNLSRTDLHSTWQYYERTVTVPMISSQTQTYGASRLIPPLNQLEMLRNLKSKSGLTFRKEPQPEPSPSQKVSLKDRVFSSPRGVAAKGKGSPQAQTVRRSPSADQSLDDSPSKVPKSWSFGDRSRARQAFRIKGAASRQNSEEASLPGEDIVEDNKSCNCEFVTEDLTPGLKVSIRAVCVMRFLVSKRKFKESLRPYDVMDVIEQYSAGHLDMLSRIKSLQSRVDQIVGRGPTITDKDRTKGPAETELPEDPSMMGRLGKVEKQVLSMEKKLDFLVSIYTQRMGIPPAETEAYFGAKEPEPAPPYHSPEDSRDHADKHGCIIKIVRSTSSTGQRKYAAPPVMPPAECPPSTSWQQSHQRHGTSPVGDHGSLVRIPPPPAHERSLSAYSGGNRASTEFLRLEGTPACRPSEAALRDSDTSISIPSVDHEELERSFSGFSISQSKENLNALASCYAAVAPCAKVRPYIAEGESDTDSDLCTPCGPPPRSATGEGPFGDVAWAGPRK
# KCNQ2 inh baseline: recorded beside KCNQ2 inh, whose call it bears; B-score; measured here: initial fluorescence intensity artifact check;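 brightness before thallium and not channel activity; 0 = typical well and far values either way flag optical interference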
# An asterisk follows results filed as active; i = inactive. This is a subset; count on the stated rates, not on these rows.
KCNQ2 inh	KCNQ2 inh baseline	SMILES
i	0.76	CCOC(=O)c1nnc(-c2ccccc2)nc1NCc1ccc(Cl)cc1
i	0.04	Cc1cc(C(=O)Nc2ccc3c(c2)OCO3)no1
i	-0.72	Cc1cc(C)c(C(=O)NC2CC(C)(C)Cc3c2cnn3-c2cccc(F)c2)[nH]1 (configuration not stated)
i	1.5	O=[N+]([O-])c1ccc2nc(N3CCCC3)sc2c1
i	0.57	FC(F)(F)c1cnc(N2CCN(C(=S)NCc3ccccc3)CC2)c(Cl)c1
i	-2.1	CCOc1c(Cl)cc(CNc2ccc(S(N)(=O)=O)cc2)cc1OC
i	-0.75	CCN(CC)S(=O)(=O)c1cccc(-c2nnc(SCC(=O)c3cc(C)n(C)c3C)o2)c1
i	1.1	N#C/C(=C\c1ccc[nH]1)C(=O)Nc1ccccc1[N+](=O)[O-]
i	-2.7	c1ccc2c(-n3cccn3)cccc2c1
i	0.54	N#Cc1ccc(CSc2ccccn2)c(Cl)c1
i	0.46	COc1ccc(C(=O)CN2CCN(CCN3C(=O)c4cccc5cccc(c45)C3=O)CC2)cc1
i	0.42	CNC(=O)c1c(NC(=O)CCS(=O)(=O)c2ccccc2)sc2c1CCN(C(=O)OC)C2
i	0.7	COc1ccccc1-c1nnc(NC(=O)CCS(=O)(=O)c2ccccc2)o1
i	0.56	COc1ccc(CC(=O)OCC(=O)Nc2c(C)n(C)n(-c3ccccc3)c2=O)cc1
i	-0.05	O=C(CSc1nc2c(sc3ccccc32)c(=O)n1Cc1ccco1)NCC1CCCO1 (configuration not stated)
i	0.8	CCNC(=O)CN(c1ccc(Cl)cc1)S(=O)(=O)c1ccccc1
i	1.5	CN(C)S(=O)(=O)c1ccc(N2CCCC2)c(C(=O)Nc2ccc(N3CCOCC3)cc2)c1
i	0.06	FC(F)(F)c1cc(-c2ccc(Cl)cc2)nc(NCc2cccnc2)n1
i	-1.9	O=C(Nc1ccc2oc(-c3cccnc3)nc2c1)c1ccco1
i	0.73	COc1cccc(C2C([N+](=O)[O-])=C(N)Oc3cc(C)oc(=O)c32)c1 (configuration not stated)
-7.5*	2.9*	C[C@@H]1CC=C[C@H]2[C@H]1C(=O)N(Cc1ccccc1)[C@H]2c1ccc2ccccc2c1Br
i	0.32	COCc1cc(C)nc(NC2CC(C)(C)NC(C)(C)C2)c1C#N
i	0.09	O=C(NCCCn1ccnc1)C(=O)NCC1OCCN1S(=O)(=O)c1ccc(Cl)cc1 (configuration not stated)
i	1.1	CCOc1ccc(NC(=O)COc2ccc(C(=O)NCCc3ccccc3)cc2)cc1
i	-0.44	Cn1ccnc1SC(=O)N1c2ccccc2Sc2ccccc21
i	0.21	CCCCn1c(SCC(=O)N2CCC(C(=O)OCC)CC2)nc2cc(S(N)(=O)=O)ccc21
i	1.1	O=C(O)c1cccc(N/N=C/c2sc(N3CCOCC3)nc2-c2ccccc2)c1
i	0.78	CO/N=C/NC(=O)c1c(OC)ccnc1Oc1ccc(F)cc1
i	0.64	CC(C)Oc1cccc(C(=O)C2CCCN(Cc3cnc(N4CCOCC4)s3)C2)c1 (configuration not stated)
i	0.04	O=C(CN1C(=O)/C(=C\c2ccc(C(F)(F)F)cc2)Sc2ccccc21)NCc1ccco1
i	-1.3	Cc1ccc(Nc2nc(C)cs2)cc1
i	-0.08	Cc1nc2cc(-c3cccc(F)c3)nn2c(N2CCN(C(=O)c3ccco3)CC2)c1C
i	-0.26	Cc1cccc(C(=O)NCCNC(=O)c2ccco2)c1
i	0.61	CSCCC(=O)N1CCCC(N2CCN(c3cccc(C(F)(F)F)c3)CC2)C1 (configuration not stated)
i	-1.6	CN1CCN(C(=O)c2ccc3c(c2)N(Cc2ccccc2F)C(=O)c2ccccc2S3=O)CC1 (configuration not stated)
i	1.5	OC(COc1c(Cl)cc(Cl)cc1Cl)CN1CCCCC1 (configuration not stated)
i	0.77	O=C(Nc1ccc2c(c1)C(=O)N(C1CCCCC1)C2=O)C1CCCO1 (configuration not stated)
i	-1.4	COc1cccc(NC(=O)CC(=O)c2ccc([N+](=O)[O-])cc2)c1
i	-0.5	O=C(O)C1CCCCC1C(=O)OCCCCOC(=O)C1CCCCC1C(=O)O (configuration not stated)
i	-0.22	Oc1ccc(C2C=C(c3ccc(F)cc3)Nc3ncnn32)cc1 (configuration not stated)
i	0.36	CNC(=O)CCC(=O)Nc1ccc(C(=O)OC)cc1
i	-0.45	Cc1cnc(NC(=O)CN2CCN(c3ccccn3)CC2)s1
i	0.04	c1ccc(SCCCCN2CCOCC2)cc1
i	-1.5	CCCC(=Nc1ccccc1OC)C1=C(O)CC(c2ccccc2)CC1=O (configuration not stated)
i	-0.74	COC(=O)C(NC(C)=O)(Nc1nc2c(C)cc(C)cc2s1)C(F)(F)F (configuration not stated)

# Looked up one by one from the entries so far (four):
KCNQ2 inh	KCNQ2 inh baseline	SMILES
i	0.36	CNC(=O)CCC(=O)Nc1ccc(C(=O)OC)cc1
i	-0.5	O=C(O)C1CCCCC1C(=O)OCCCCOC(=O)C1CCCCC1C(=O)O (configuration not stated)
i	-0.08	Cc1nc2cc(-c3cccc(F)c3)nn2c(N2CCN(C(=O)c3ccco3)CC2)c1C
i	0.61	CSCCC(=O)N1CCCC(N2CCN(c3cccc(C(F)(F)F)c3)CC2)C1 (configuration not stated)

# The results go on:
KCNQ2 inh	KCNQ2 inh baseline	SMILES
i	-2.1	COc1cc(/C=C(/C(=O)O)c2ccc(-c3ccccc3)cc2)cc(OC)c1OC
i	-0.72	O=C(O)c1cc(N2C(=O)CCC2=O)ccc1NCc1cccnc1
i	-0.18	CC1(C)Cc2noc(N)c2C(C)(C)N1OC(=O)c1scc2c1OCCO2
i	0.84	COC(CNC(=O)CCCn1nnnc1CN1CCOCC1)c1cccs1 (configuration not stated)
i	2.4	O=C(Nc1cccc(-c2cccc(F)c2)c1)C1CCN(C2CCOCC2)CC1
i	-0.14	O=C(OCc1ccc([N+](=O)[O-])cc1)c1ccc2ccccc2n1
i	1.4	CCCC(=O)Nc1nc(-c2ccc3c(c2)CCN3S(C)(=O)=O)cs1
i	0.87	COCC(=O)Nc1cccc(-c2ccc3nncn3n2)c1
i	0.07	N#CC(C#SN)=C1CCCCC1
i	0.7	CCN(c1ccccc1)S(=O)(=O)c1ccc(C(=O)Nc2ncccc2O)cc1
i	-2	S=C(NCc1ccco1)Nc1cc(-c2ccccc2)[nH]n1
i	1.2	CCCc1nc2ccc(NC(C)=O)cc2c(=O)n1Cc1cccc(Cl)c1
i	-2.2	CCOC(=O)N1CC=C2C(C#N)=C(N)C(C#N)(C#N)[C@H](c3ccccc3OCC)[C@H]2C1
i	0.04	CC(C)[C@H](NS(=O)(=O)c1ccc2c(c1)OCCO2)C(=O)OCC(=O)Nc1cc(Cl)ccc1Cl
i	0.82	CCOC(=O)c1ccc(CNCc2ccc(Br)cc2)cc1
i	5.1	N#Cc1nc(COc2ccc(Br)cc2)oc1NCCCn1ccnc1
i	0.03	CC(C)CCNC(=O)C1CCCN1C(=O)NC1CCCCC1 (configuration not stated)
i	-2.6	OC(Cn1cncn1)(c1ccccc1)c1ccccc1
i	0.76	Cn1c(N)c(C(=O)c2ccc(F)cc2F)c(=O)n(C)c1=O
i	0.12	CCC1Oc2ccccc2N(CC(=O)NC2CCCC2)C1=O (configuration not stated)
i	-0.66	O=C1C2C3CC(C(Br)C3Br)C2C(=O)N1c1ccccn1 (configuration not stated)
i	4.9	O=C(CN1C(=O)S/C(=C\c2ccc(Cl)cc2)C1=O)NCCCn1ccnc1
i	1.3	CCCc1cc(C(=O)Nc2cc(C)nn2-c2ccccc2)no1
i	-0.62	NS(=O)(=O)c1cccc(NC(=O)CSc2nc3ccc(Cl)cc3[nH]2)c1
i	-0.25	CCCN1CCC(=O)N([C@H](CSc2ccc(Br)cc2)Cc2ccccc2)CC1
i	2.2	O=C(CCc1nc2ccccc2c(=O)[nH]1)NCc1ccco1
i	-0.41	Cc1ccc(-c2ccnc(-c3ccc(O)cc3)n2)cc1
i	-0.22	COc1ccc(N2CCN(C(=O)Cc3nn(C)c(=O)c4ccccc34)CC2)cc1
i	-2.2	Cc1cc(C)cc(NC(=O)C2CCN(C(=O)[C@@H]3Cc4ccccc4CN3)CC2)c1
i	0.81	Cc1cc(C)n(-c2ccc(C(=O)OCn3nnc4ccccc4c3=O)cc2)n1
i	0.86	COc1ccc2oc(-c3ccc(C)c(NC(=O)CSc4ccc(Cl)cc4)c3)nc2c1
i	1.1	O=Cc1ccc(OC(=O)/C=C/c2ccccc2)cc1
i	-0.35	CC(=O)C1=C(C)N2CCN=C2S1
i	-0.11	CCOc1ccccc1N(CC(=O)Nc1ccc(C)cc1)S(C)(=O)=O
i	0.86	Cc1[nH]nc(SCC(=O)N2CCCCC2)c1[N+](=O)[O-]
i	-0.28	COc1ccccc1NC(=O)C1=C(C)NC(=O)NC1c1ccccc1[N+](=O)[O-] (configuration not stated)
i	3	Cc1cc(Cl)cc(C)c1OCCn1ccnc1
i	-1.1	Cc1ccc(C)c(-n2c(=O)c(C#N)cc3c(=O)n4ccccc4nc32)c1
-6.6*	1.2*	Cc1ccc(S(=O)(=O)N2CCCC2C(=O)NCc2ccccc2Cl)cc1 (configuration not stated)
i	0.96	NC(=O)C[C@H]1NC(=O)[C@H](CCC(=O)O)NC(=O)c2cc([N+](=O)[O-])cc(I)c2NCCC[C@@H](C(N)=O)NC1=O
i	3.5	CNC(=O)c1cc2cc(Br)ccc2s1
i	0.91	Cc1cc(-c2nnc(SCC(=O)c3ccc(F)cc3)o2)no1
i	-0.84	O=C(Nn1cnnc1)c1ccccc1-c1ccccc1
i	-2.8	CCCCOC(=O)Nc1ccc(S(=O)(=O)Nc2nc(C)cc(C)n2)cc1
i	0.02	CC(=O)Nc1cccc(Oc2nc(C)cc(C)c2C#N)c1
i	0.35	CCOC(=O)/C=c1\s/c(=C\c2c(OC)ccc3ccccc23)c(=O)n1CC(=O)NCC1CCCO1 (configuration not stated)
i	-0.05	O=C(O)c1ccc(N2CCCCC2)cc1O
i	-1	CCn1ncc(Br)c1C(=O)Nc1sc2c(c1C(=O)OC)CCC2
i	0.53	CCCCc1nc2cc(C(=O)N3CCCC3)ccc2o1
i	0.37	O=C(O)CNS(=O)(=O)/C=C/c1ccccc1
i	2.9	Cc1csc(SCc2ccc(C(=O)O)cc2)n1
i	0.55	NC(=O)COC(=O)/C=C/c1ccc(S(=O)(=O)N2CCCCCC2)cc1
i	1.9	CCOc1ccccc1Nc1nc2ccccc2[nH]1
i	0.95	COc1ccc(S(=O)(=O)N2CCC(C(=O)N[C@H](C(=O)NCc3ccco3)C(C)C)CC2)cc1
i	0.49	O=C(O)C1CCC(CNS(=O)(=O)c2ccccc2)CC1 (configuration not stated)
i	-1.1	O=C(CSCc1ccc(Cl)cc1)NN=C1CCCCCC1
i	-1.1	c1ccc(-c2nnc(SCc3nc4ccccc4[nH]3)n2Cc2ccco2)cc1
i	1.3	CCCCn1c(N)c(N(CCOC)C(=O)c2cc(CC)c(C)s2)c(=O)[nH]c1=O
i	-1.9	Cc1cc2oc(=O)cc(CSc3nnc(-c4cccs4)o3)c2cc1C(C)C
i	0.28	Cc1ccc(CNC(=O)CCc2ccc(S(=O)(=O)NCC(C)C)cc2)cc1

# Carrying on:
KCNQ2 inh	KCNQ2 inh baseline	SMILES
i	-0.67	CCCc1cc(=O)n2[nH]c(NCc3cccs3)nc2n1
i	-0.04	C=CCn1c(CCC(=O)Nc2ccc(C)c(Cl)c2)nnc1SCC(=O)Nc1ccccc1C
i	1.6	O=[N+]([O-])c1ccc2cn[nH]c2c1
i	-0.36	Cc1c(NC(=O)CN2c3cccc4cccc(c34)S2(=O)=O)c(=O)n(-c2ccccc2)n1C
i	-1	S=C1SCN(Cc2cccnc2)CN1Cc1ccccc1
i	0.07	CCOc1ccc(CC(=O)C2=C(N3CCOCC3)CC(C)(C)CC2=O)cc1OCC
i	0.08	COc1ccccc1CNC(=O)N/C=C/c1ccc(Cl)cc1
i	-2.5	COc1ccc(-n2c(CCc3ccccc3)nnc2SCC(=O)NCc2ccccc2)cc1
i	-1.6	Cc1ccc(C(=O)NC(=S)Nc2ccccc2C(F)(F)F)cc1C
i	-1.5	Cn1cc(CN2CCCC(C(=O)Nc3ccc(-c4cccc(F)c4)cc3)C2)cn1 (configuration not stated)
i	-0.47	CC(C)(O)C#Cc1ccc(C(=O)NCc2ccccc2)s1
i	-1.6	CCCCNC(=S)N(C)N=C1CCC(c2ccccc2)CC1 (configuration not stated)
i	1.5	Cn1c(=O)c2ncn(CC(=O)O)c2n(C)c1=O
i	-1.1	COc1ccc(-n2nc3cc(C)c(NC(C)=O)cc3n2)cc1
i	0.02	CC(C)C(=O)NC(c1ccccc1)c1cc([N+](=O)[O-])c2cccnc2c1O (configuration not stated)

# Five compounds from above, ordered by molar mass, highest first.
KCNQ2 inh	KCNQ2 inh baseline	SMILES
i	-1.5	Cn1cc(CN2CCCC(C(=O)Nc3ccc(-c4cccc(F)c4)cc3)C2)cn1 (configuration not stated)
i	0.02	CC(C)C(=O)NC(c1ccccc1)c1cc([N+](=O)[O-])c2cccnc2c1O (configuration not stated)
i	0.08	COc1ccccc1CNC(=O)N/C=C/c1ccc(Cl)cc1
i	-0.47	CC(C)(O)C#Cc1ccc(C(=O)NCc2ccccc2)s1
i	-0.67	CCCc1cc(=O)n2[nH]c(NCc3cccs3)nc2n1

# Continued:
KCNQ2 inh	KCNQ2 inh baseline	SMILES
i	0.22	CN(c1ccc(OCC(=O)O)cc1)S(=O)(=O)c1ccc2ccccc2c1
i	-0.17	CCCCNc1nc(N)ncc1[N+](=O)[O-]
i	0.93	CC1CCN(C(=O)COc2ccccc2F)CC1
i	0.06	O=C(Nc1ccccc1Cl)C1CCCN(S(=O)(=O)c2ccc(-n3cnnn3)cc2)C1 (configuration not stated)
